High-throughput results (PubChem)
Vaccinia inh = Vaccinia orthopox stage-specific inhibition; 0.01% of 89,000 active; activity change (mCherry), % (test concentration not listed); Vaccinia-infected cells, mCherry/Venus stage reporter fluorescence; hits give low values; some inactives read as strong as hits; AID 1053133;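 active = mCherry past -33% and 40 or more points under the early reporter, replicates agreeing; inconclusive = past -33% without that gap or agreement; tested in A549 cells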;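 also: scaled between vehicle wells and reference inhibitor wells; 23 nL library stock went into each well; one replicate is shown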
Vaccinia inh Venus = further read-out of Vaccinia inh, marked with its call; activity change (Venus), %; measured here: Venus reporter, other viral stage;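 negative = less Venus signal; first of two replicates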
* = called active by the depositor; u = inconclusive; x = no result given. An excerpt, so the mix of outcomes need not match the whole.

SMILES	Vaccinia inh	Vaccinia inh Venus
CCC(=O)Nc1ccc2c(c1)C(=O)N(C)C[C@@H](OC)[C@H](C)CN(Cc1ccccc1C(=O)O)[C@H](C)CO2	-7.3	-6.2
O=C(NCC[C@H]1CC[C@@H](NS(=O)(=O)c2ccccc2)[C@@H](CO)O1)c1ccccc1F	7.5	1.5
Cc1ccc(S(=O)(=O)Nc2ccc3c(c2)C(=O)N([C@H](C)CO)C[C@H](C)[C@H](CN(C)Cc2ccncc2)OCCCC[C@@H](C)O3)cc1	20.3	1.3
COc1ccc(NC(=O)N2CC(=O)N3[C@H](C2)[C@H](c2ccc(C4=CCCC4)cc2)[C@@H]3CO)cc1	7.4	-0.7
CCN1[C@@H]2Cn3c(ccc(C4=CCCC4)c3=O)[C@H]1[C@@H](C(=O)N[C@H](C)c1ccccc1)[C@@H]2CO	-7.7	-13.9
N#C[C@@H]1[C@H](c2ccccc2/C=C/c2ccccc2)[C@H](CO)N1S(=O)(=O)c1cccc(F)c1	-20.6	-10.6
COc1ccc(NC(=O)Nc2ccc3c(c2)C(=O)N([C@@H](C)CO)C[C@H](C)[C@H](CN(C)C(=O)Nc2ccc(C(F)(F)F)cc2)O3)cc1	-7.4	-0.6
O=C(C1CCCC1)N1CCCCN2[C@@H](CO)[C@@H](c3ccc(C#CC4CC4)cc3)[C@@H]2C1	u	x
C[C@@H]1CN([C@H](C)CO)C(=O)c2cccc(NS(=O)(=O)c3ccccc3)c2O[C@@H]1CN(C)S(=O)(=O)c1cccs1	4.6	-1.3
CC(=O)N1[C@@H]2Cn3c(cccc3=O)[C@H]1[C@@H](C(=O)NCc1ccc(F)cc1)[C@@H]2CO	12.9	7.1
Cc1ccc(S(=O)(=O)Nc2ccc3c(c2)C(=O)N([C@@H](C)CO)C[C@H](C)[C@@H](CN(C)Cc2ccncc2)OCCCC[C@@H](C)O3)cc1	-28.4	-25.6
COc1ccc2c3c([nH]c2c1)[C@H](CO)N(C(=O)Nc1ccc(F)cc1)CC31CN(C(=O)Cc2ccncc2)C1	17.8	-10.0
Cc1noc(C)c1NC(=O)N(C)C[C@H]1OCCCC[C@@H](C)Oc2ccc(NC(=O)c3ccccc3)cc2C(=O)N([C@@H](C)CO)C[C@@H]1C	20.4	-2.5
COc1ccc(S(=O)(=O)N(C)C[C@@H]2Oc3ccc(NS(=O)(=O)c4ccc(Cl)cc4)cc3C(=O)N([C@H](C)CO)C[C@@H]2C)cc1	16.4	7.2
CNC[C@H]1Oc2cc(C#CCN(C)C)ccc2S(=O)(=O)N([C@H](C)CO)C[C@H]1C	10.0	7.5
COC(=O)C[C@@H]1C[C@@H]2c3cc(N(C)C)ccc3O[C@@H]2[C@@H](CO)O1	16.0	26.1
CN1CCN(C(=O)C[C@@H]2CC[C@H]3[C@@H](COC[C@H](O)CN3C(=O)c3ccccc3F)O2)CC1	17.3	20.9
C[C@H]1CCCCO[C@@H](CN(C)C(=O)Nc2ccccc2)[C@@H](C)CN([C@@H](C)CO)C(=O)c2cc(N(C)C)ccc2O1	-15.4	-14.7
C[C@H]1CN([C@@H](C)CO)C(=O)Cc2cc(NC(=O)C3CC3)ccc2O[C@H]1CN(C)C(=O)Nc1ccc2c(c1)OCO2	7.9	11.1
CC(=O)N1CC(=O)N2[C@H](CO)[C@H](c3ccc(C#Cc4cccnc4)cc3)[C@@H]2C1	5.7	6.3
C[C@@H]1CN([C@@H](C)CO)C(=O)c2cc(-c3cccc(C#N)c3)cnc2O[C@H]1CN(C)Cc1cccnc1	11.8	-6.5
C[C@@H]1CCCCO[C@H](CN(C)Cc2ccc(C(=O)O)cc2)[C@H](C)CN([C@@H](C)CO)C(=O)c2cc(NC(=O)Nc3ccc4c(c3)OCO4)ccc2O1	5.9	7.0
CC(C)NC(=O)N(C)C[C@@H]1OCCCC[C@@H](C)Oc2ccc(NC(=O)Nc3ccccc3)cc2C(=O)N([C@H](C)CO)C[C@@H]1C	21.1	2.5
CNC(=O)C[C@@H]1CC[C@@H]2[C@H](COc3ccc(NC(=O)Nc4ccc(Cl)cc4)cc3C(=O)N2C)O1	16.8	9.6

Structures above with an aryl methoxy group, in the order listed:
SMILES	Vaccinia inh	Vaccinia inh Venus
COc1ccc(NC(=O)N2CC(=O)N3[C@H](C2)[C@H](c2ccc(C4=CCCC4)cc2)[C@@H]3CO)cc1	7.4	-0.7
COc1ccc(NC(=O)Nc2ccc3c(c2)C(=O)N([C@@H](C)CO)C[C@H](C)[C@H](CN(C)C(=O)Nc2ccc(C(F)(F)F)cc2)O3)cc1	-7.4	-0.6
COc1ccc2c3c([nH]c2c1)[C@H](CO)N(C(=O)Nc1ccc(F)cc1)CC31CN(C(=O)Cc2ccncc2)C1	17.8	-10.0
COc1ccc(S(=O)(=O)N(C)C[C@@H]2Oc3ccc(NS(=O)(=O)c4ccc(Cl)cc4)cc3C(=O)N([C@H](C)CO)C[C@@H]2C)cc1	16.4	7.2

Remaining list, next part
SMILES	Vaccinia inh	Vaccinia inh Venus
CN1C(=O)c2cc(NC(=O)c3cccc(F)c3)ccc2OC[C@H]2O[C@@H](CC(=O)N3CCc4ccccc4C3)CC[C@H]21	-12.9	-9.8
COc1cccc(S(=O)(=O)Nc2ccc3c(c2)[C@H]2C[C@H](CC(=O)NCc4cccc(F)c4)O[C@H](CO)[C@H]2O3)c1	-23.0	-10.6
COc1ccc(C#Cc2ccc3c(c2)[C@H]2[C@H](CCN2Cc2ccncc2)[C@H](CO)N3)cc1	-15.3	-14.7
C[C@H]1CN([C@@H](C)CO)C(=O)c2cc(C#Cc3cccc(F)c3)cnc2O[C@H]1CN(C)CC1CCCC1	u	x
COc1cccc(NC(=O)N(C)C[C@@H]2Oc3cc(-c4ccccc4F)ccc3S(=O)(=O)N([C@@H](C)CO)C[C@H]2C)c1	-22.8	-19.0
COc1ccc(NC(=O)N2CCCCN3[C@H](CO)[C@H](c4ccc(C#Cc5ccccn5)cc4)[C@@H]3C2)cc1	12.5	1.6
COC(=O)[C@@H]1[C@@H](CO)[C@@H]2Cn3c(ccc(-c4ccccc4)c3=O)[C@H]1N2S(=O)(=O)c1ccccc1C	4.5	8.5
CN1C(=O)c2cc(NC(=O)Cc3ccccc3)ccc2OC[C@@H]2O[C@H](CC(=O)NCC3CC3)CC[C@@H]21	-5.8	-2.2
C[C@H](CO)N1C[C@H](C)[C@@H](CN(C)CC2CCCCC2)Oc2ccc(NC(=O)Cc3ccccc3)cc2C1=O	8.3	8.6
CNC(=O)C[C@@H]1CC[C@@H]2[C@H](COC[C@H](O)CN2Cc2ccccc2F)O1	18.9	8.4
COc1ccc(S(=O)(=O)Nc2ccc3c(c2)C(=O)N([C@H](C)CO)C[C@@H](C)[C@@H](CN(C)C(=O)Nc2cccc4ccccc24)O3)cc1	7.2	4.1
Cc1ccc(S(=O)(=O)Nc2cccc3c2O[C@@H](CN(C)CC2CCCCC2)[C@H](C)CN([C@@H](C)CO)C3=O)cc1	6.2	11.9
CN(C)C(=O)c1ccc(-c2ccc([C@@H]3[C@@H](C#N)N(C(=O)Nc4ccccc4F)[C@H]3CO)cc2)cc1	-2.7	-12.4
COc1cccc(CN2CCC3(CC2)CN(S(C)(=O)=O)[C@H](CO)c2[nH]c4cc(OC)ccc4c23)c1	u	x
C[C@H](CO)N1C[C@H](C)[C@H](CN(C)C(=O)Nc2ccc(F)cc2)Oc2ncc(-c3cccc(F)c3)cc2C1=O	u	x
C[C@@H]1CN([C@H](C)CO)C(=O)c2cccc(NC(=O)c3ccncc3)c2O[C@@H]1CN(C)C	8.7	6.8
COCC#Cc1ccc(CC[C@H]2O[C@H]3CC[C@H](CO)O[C@H]3C[C@H]2NC(=O)Nc2c(C)noc2C)cc1	3.3	-2.2
C=CCOC(=O)[C@H]1[C@@H]2C(=O)O[C@@H](c3ccccc3)[C@@H](c3ccccc3)N2[C@@H](c2ccc(OCCOC(=O)[C@H]3C[C@H]4C(=O)NCC(=O)N4[C@H]3c3ccc(O)cc3)cc2)[C@]12C(=O)Nc1ccccc12	-4.0	2.8
C[C@@H]1CCCCO[C@@H](CN(C)S(=O)(=O)c2ccc(F)cc2)[C@H](C)CN([C@@H](C)CO)C(=O)c2cc(NC(=O)C3CCCCC3)ccc2O1	u	x
CC(C)NC(=O)N(C)C[C@H]1Oc2ccc(NC(=O)CCC(F)(F)F)cc2CC(=O)N([C@@H](C)CO)C[C@@H]1C	8.0	-1.0
CO[C@@H]1CC[C@@H]2CCN(C)C(=O)[C@@H](C)CN(C)C(=O)c3cccc(C#N)c3OC[C@@H]1O2	10.6	1.9
C[C@H]1CN([C@@H](C)CO)C(=O)Cc2cc(NC(=O)Cn3cnnn3)ccc2O[C@@H]1CN(C)Cc1ccc(C(=O)Nc2ccccc2N)cc1	0.4	2.8
COc1ccc(S(=O)(=O)N(C)C[C@@H]2Oc3ccc(NC(=O)Nc4ccc(C(F)(F)F)cc4)cc3CC(=O)N([C@H](C)CO)C[C@@H]2C)cc1	u	x
O=C(Nc1cccc(F)c1)N1CC(=O)N2[C@H](C1)[C@@H](c1ccc(Br)cc1)[C@@H]2CO	u	x
CC(C)NC(=O)Nc1ccc2c(c1)C(=O)N([C@H](C)CO)C[C@H](C)[C@H](CN(C)Cc1ccc(C(=O)O)cc1)O2	-3.4	-1.8
C[C@H]1CN([C@@H](C)CO)C(=O)c2cccc(N(C)C)c2O[C@@H]1CN(C)C(=O)Nc1ccc(C(F)(F)F)cc1	-12.8	-12.6
C[C@@H]1CN([C@@H](C)CO)S(=O)(=O)c2ccc(C#CCN(C)C)cc2O[C@H]1CN(C)Cc1ccccc1	-29.9	-7.9
C[C@@H]1CN([C@@H](C)CO)C(=O)Cc2cc(NS(=O)(=O)c3cn(C)cn3)ccc2O[C@@H]1CN(C)Cc1ccc(C(=O)Nc2ccccc2N)cc1	13.0	10.3
CCCN1C[C@@H](C)[C@@H](OC)CN(C)C(=O)c2ccc(NC(=O)C3CCC3)cc2OC[C@@H]1C	16.4	19.1
CCCC(O)C#Cc1cnc2c(c1)C(=O)N([C@H](C)CO)C[C@H](C)[C@H](CN(C)S(=O)(=O)c1ccc(C)cc1)O2 (stereo partly drawn)	-21.6	-16.3
CN1CCN(C(=O)C[C@@H]2C[C@@H]3c4cc(NC(=O)Nc5ccc(F)cc5)ccc4O[C@@H]3[C@@H](CO)O2)CC1	8.6	3.1
CCCC#Cc1ccc2c(c1)O[C@H](CN(C)C(=O)c1cnccn1)[C@H](C)CN([C@@H](C)CO)S2(=O)=O	-7.4	-10.1
C[C@@H]1CN([C@H](C)CO)C(=O)c2cccc(NS(C)(=O)=O)c2O[C@@H]1CN(C)Cc1ccc(C(=O)O)cc1	9.9	7.6
COc1ccc(NC(=O)Nc2cccc3c2O[C@@H](CN(C)C(=O)Nc2ccc(OC)cc2)[C@@H](C)CN([C@H](C)CO)C3=O)cc1	2.1	5.6
CO[C@@H]1CC[C@@H]2CCOc3ccc(C#N)cc3C(=O)N(C)CCCC(=O)N(C)C[C@@H]1O2	5.2	-0.3
Cc1noc(C)c1NC(=O)N[C@@H]1CC[C@@H](CCNC(=O)C2CCCCC2)O[C@@H]1CO	5.5	10.1
C[C@H]1CN([C@@H](C)CO)C(=O)c2cc(-c3cncnc3)cnc2O[C@H]1CN(C)Cc1ccc(Oc2ccccc2)cc1	-26.1	-20.7
C[C@@H]1CN([C@H](C)CO)C(=O)c2cc(NS(=O)(=O)c3ccc(Cl)cc3)ccc2O[C@@H](C)CCCCO[C@@H]1CN(C)C(=O)c1ccncc1	26.4	10.9
CC(C)NC(=O)N[C@@H]1CC[C@@H](CCn2cc(-c3ccccc3)nn2)O[C@@H]1CO	2.3	-0.4
CO[C@H]1CN(C)C(=O)c2ccc(NC(=O)c3ccno3)cc2OC[C@H](C)N(S(C)(=O)=O)C[C@H]1C	15.6	13.0
C[C@@H](NC(=O)C[C@H]1CC[C@@H](NC(=O)C2CC2)[C@@H](CO)O1)c1ccccc1	9.3	8.4
CN1C(=O)c2cc(NC(=O)C3CCOCC3)ccc2OC[C@@H]2O[C@@H](CC(=O)NC3CCCC3)CC[C@@H]21	4.6	8.2
COc1cccc(-c2ccc3n(c2=O)C[C@H]2[C@H](CO)[C@@H](C(=O)N4CCCCC4)N[C@@H]32)c1	7.0	5.9
C[C@H]1CN([C@@H](C)CO)C(=O)c2cc(NC(=O)CCC(F)(F)F)ccc2O[C@@H]1CN(C)C(=O)Nc1cccc2ccccc12	-11.8	-9.6
O=C(C1CC1)N1CC(=O)N2[C@@H](CO)[C@@H](c3ccc(Br)cc3)[C@@H]2C1	3.5	3.8
CCCC#Cc1cnc2c(c1)C(=O)N([C@@H](C)CO)C[C@H](C)[C@H](CN(C)C(=O)c1cccnc1)O2	10.6	-3.6
C[C@@H]1CCCCO[C@H](CN(C)S(C)(=O)=O)[C@@H](C)CN([C@H](C)CO)C(=O)c2cc(NC(=O)CCC(F)(F)F)ccc2O1	0.0	0.8
C[C@@H]1CN([C@H](C)CO)C(=O)c2cc(N(C)C)ccc2O[C@@H]1CN(C)C(=O)NC1CCCCC1	26.1	11.5
CS(=O)(=O)Nc1ccc2c(c1)[C@@H]1C[C@@H](CC(=O)NCC3CC3)O[C@@H](CO)[C@@H]1O2	-1.2	2.4
CCCN1[C@@H]2c3ccc(-c4cccc(C(=O)N(C)C)c4)c(=O)n3C[C@H]1[C@H](CO)[C@H]2C(=O)OC	8.1	4.0
C[C@@H]1CCCCO[C@@H](CN(C)C(=O)Nc2ccccc2)[C@@H](C)CN([C@@H](C)CO)C(=O)c2cc(NC(=O)CCC(F)(F)F)ccc2O1	-15.8	-10.9
C[C@H](CO)N1C[C@H](C)[C@H](CN(C)C(=O)C2CC2)Oc2cc(-c3cccc(F)c3)ccc2S1(=O)=O	-32.2	-26.1
COc1cccc(NC(=O)N(C)C[C@H]2Oc3cc(C#Cc4ccc(F)cc4)ccc3S(=O)(=O)N([C@H](C)CO)C[C@H]2C)c1	u	x
